RE007 growth inh = less growth of the S. pombe RE007 Vpr strain | Potency, µM (series often up to 92.2 µM), inactives show at the top dose activity change, negative = less growth | 0.21% of 360,000 active | S. pombe RE007 Vpr strain, BacTiter-Glo ATP luminescence, 24 h; control for the full effect not named in the record; active = well fitted falling curve with a large enough effect; inconclusive = small, poorly fitted or top-dose-only effect; inactive = no such curve, though single readings can be large or run the other way;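 note: % is set by controls: 0 for no effect and ±100 for the full control effect; nearly all actives have a fitted effect of over 50% in size; the assay follows cell death caused by Vpr and the record does not say whether a fall means rescue or toxicity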
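Fission yeast RE007 carrying one integrated HIV-1 vpr copy, seeded at OD 0.01 in PMG+AL medium with 23 nL pinned compound. Grown 24 h at 30 degrees; viability read by BacTiter-Glo luminescence after 5 min.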
SARS PLpro yeast = inhibitors of SARS-CoV papain-like protease in yeast; S. cerevisiae expressing SARS-CoV PLpro, growth rescue; control for the full effect not named in the record; Potency, µM (top dose mostly 32.9 µM), inactives show at the highest dose activity, positive = growth rescue; 0.19% of 330,000 active; note: 0% is about no effect; nearly all actives have a fitted effect of over 55% in size; growth read by luminescence after 48 h
Cruzain noTriton = inhibitors of Trypanosoma cruzi cruzain without detergent | Potency, µM, without a hit: max response, negative = inhibition, usual class: inhibitors | P25779 | 2.3% of 200,000 active | purified cruzain, Z-FR-AMC fluorescence, no detergent; active = well fitted curve in the direction sought with a large enough effect; inconclusive = small, poorly fitted or top-dose-only effect, or another doubt; inactive = no such curve, though single readings can be large; an effect the other way counts as inactive or inconclusive;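 note: plate controls were enzyme without inhibitor for no effect and buffer without enzyme for full effect; nearly all actives have a fitted effect of over 40% in size; top concentration of the series not given in the record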
Target sequence (P25779 123-467 limits assumed): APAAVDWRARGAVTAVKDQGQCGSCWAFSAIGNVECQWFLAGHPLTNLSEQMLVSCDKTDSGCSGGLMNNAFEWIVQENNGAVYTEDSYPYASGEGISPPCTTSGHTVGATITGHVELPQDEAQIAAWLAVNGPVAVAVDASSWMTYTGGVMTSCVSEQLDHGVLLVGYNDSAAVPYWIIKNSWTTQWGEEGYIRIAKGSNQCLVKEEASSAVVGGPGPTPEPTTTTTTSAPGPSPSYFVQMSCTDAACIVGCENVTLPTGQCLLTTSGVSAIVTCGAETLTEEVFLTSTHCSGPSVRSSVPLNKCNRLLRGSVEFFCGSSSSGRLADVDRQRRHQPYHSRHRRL
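Detergent-free condition (0.00005% Triton X-100) in acetate buffer pH 5.5 with DTT. 1.5 nM enzyme and compound were pre-mixed 15 min, then 2 uM Z-FR-AMC substrate added; reaction progress from fluorescence change between first and third reads (60 s).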
Lassa entry inh = Lassa virus entry inhibition | 1.2% of 300,000 active | Potency, µM (titrated, usually from 37.9 µM), for the others: top-dose activity change, negative = inhibition, hits mostly inhibitors | Lassa virus pseudotype entry inhibition, cell reporter; control for the full effect not named in the record; active means well fitted inhibition curve with a large enough effect; inconclusive means small, poorly fitted or top-dose-only effect, or effect the other way; inactive means flat fitted curve, though single readings scatter; tested in HEK293 cells; note: % is set by controls: 0 for no effect and ±100 for the full control effect; nearly all actives have a fitted effect of over 50% in size; luciferase read-out
Cruzain Triton = cruzain (T. cruzi) inhibition with detergent | P25779 | purified cruzain, Z-FR-AMC fluorescence, 0.01% Triton | Potency, µM, inactives show max response, negative = inhibition, usual class: inhibitors | 0.43% of 200,000 active | AID 1478; active = well fitted curve in the direction sought with a large enough effect; inconclusive = small, poorly fitted or top-dose-only effect, or another doubt; inactive = no such curve, though single readings can be large; an effect the other way counts as inactive or inconclusive;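 note: plate controls were neutral wells for no effect and buffer without enzyme for full effect; nearly all actives have a fitted effect of over 40% in size; top concentration of the series not given in the record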
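Detergent-containing arm of a paired screen for aggregation-based inhibition: 0.01% Triton X-100 present. Cruzain at 1.5 nM cleaved 2 uM Z-FR-AMC at pH 5.5 with 5 mM DTT; AMC fluorescence gain over 60 s measured activity.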
NS1 function inh = influenza NS1 inhibition | S. cerevisiae slowed by influenza A NS1, growth recovery by OD600 | Potency, µM (highest dose often 46.1 µM), inactives show at the top dose activity, positive = more growth | 0.4% of 270,000 active; note: actives are rising curves; nearly all actives have a fitted effect of over 50% in size
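Compounds were scored for reversing the slow growth caused by influenza A NS1 in S. cerevisiae, measured by optical density at 600 nm. Assay medium contained 2% galactose at pH 6.0; NS1-free yeast of the same strain were the positive control.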
2A StopGo = lowers the luciferase signal of an FMDV 2A StopGo reporter | human cells with a luciferase reporter of 2A StopGo recoding; control for the full effect not named in the record | Potency, µM (top dose mostly 57.9 µM), inactives show at the top dose signal change, negative = less light | 1.2% of 410,000 active | AID 1159524; active = well fitted falling curve with a large enough effect; inconclusive = small, poorly fitted or top-dose-only effect; inactive = no such curve, though single readings can be large or run the other way; tested in HEK293T cells; note: % is set by controls: 0 for no effect and ±100 for the full control effect; nearly all actives have a fitted effect of over 45% in size; luciferase light after 4 h
Marburg entry inh = inhibitors of Marburg virus binding or cell entry | Marburg virus pseudotyped entry inhibition, cell reporter; control for the full effect not named in the record; about a third of the inactives were read at about 46 µM | 1.8% of 300,000 active | Potency, µM (series often up to 37.8 µM), for the others: at the highest dose activity change, negative = inhibition, actives largely listed as inhibitors; active = well fitted inhibition curve with a large enough effect; inconclusive = small, poorly fitted or top-dose-only effect, or effect the other way; inactive = flat fitted curve, though single readings scatter; tested in HEK293 cells; about a fifth of its hits are not listed in these tables; note: % is set by controls: 0 for no effect and ±100 for the full control effect; luciferase read-out
Active calls of the source: *; ? = inconclusive; / = no result given; [ ] = remark or other dose. Unless noted, calls come from the whole dose curve; as a rule, active means well fitted rising curve with a large enough effect; inconclusive means small, poorly fitted or top-dose-only effect; inactive means no such curve, though single readings can be large or run the other way. Potency is the fitted concentration of half-maximal effect. Hits appear at their usual frequency; about 4.7% have a hit in one of these screens.

SMILES	RE007 growth inh	SARS PLpro yeast	Cruzain noTriton	Lassa entry inh	Cruzain Triton	NS1 function inh	2A StopGo	Marburg entry inh
COc1ccc(-n2ncc(C(=O)N3CCN(c4ccc(F)cc4)CC3)c2C)cc1	18%	1%	/	-10%	/	-1%	?	-11%[14.2 µM]
COCc1cc(C)nc2c1C(=O)NC(c1ccc(NC(C)=O)cc1)N2Cc1ccccc1 (stereo not given)	/	/	?	-2%[46.1 µM]	-19%	/	-9%	4%[46.1 µM]
CC(C)Cc1nnc(NC(=O)CCC(=O)Nc2ccc(F)cc2)s1	23%	-1%	?	-1%	7.4%	-2%	16%	27%
COc1ccc(-c2noc(CN(C)S(=O)(=O)c3ccc(C)cc3)n2)cc1	-3%	-6%	-11%	?	-3.6%	-19%	?	?
COc1ccccc1OCC(O)Cn1c(=N)n(CCN2CCCCC2)c2ccccc21 (stereo not given)	1%	11%	-8%	?	4.3%	-5%	-28%	?
O=C(CCn1c(=O)c2cccn2c2cccnc21)Nc1ccccc1Br	/	/	10%	3%[46.1 µM]	-0.4%	/	2%	/
CC(C)NC(=O)[C@@H]1CSC2c3ccccc3C(=O)N21 (stereo not given in full)	10%	-2%	/	18%[46.1 µM]	/	-1%	-13%	15%[46.1 µM]
COc1ccc(Cl)cc1C(=O)n1nc(C)cc1C	-10%	/	-3%	7%	-3.8%	-4%	0%	1%
N#Cc1ccc(COC(=O)Cn2nnc(-c3ccccc3)n2)cc1	-19%	4%	-8%	-14%	-7.4%	-4%	14%	3%[46.1 µM]
CC(c1nc2ccccc2c(=O)[nH]1)N1CCN(C)CC1 (stereo not given)	-14%	?	10%	0%	1.3%	8%	0%	5%[46.1 µM]
O=C(N/N=C\c1cn[nH]c1-c1ccccc1)c1cccs1	21%	-28%	-9%	18%	-2.1%	-10%	24%	7%
Cc1csc(NC(=O)CN2C(=O)c3ccccc3S2(=O)=O)n1	9%	3%	/	/	/	3%	-17%	/
COC(=O)c1cccc(NC(=O)/C=C/c2ccc([N+](=O)[O-])cc2)c1	3%	-13%	-14%	0%	-6.0%	-4%	-23%	?
O=C(O)CCC(=O)Nc1ccc(N2CCCCC2)c(C(=O)O)c1	-6%	12%	26%	0%	-0.5%	-4%	5%	-3%
O=C(NCCCl)Nc1ccccc1OCCOc1ccccc1NC(=O)NCCCl	11%	1%	/	?	/	3%	2%	-1%[46.1 µM]
Cc1ccc(S(=O)(=O)NCCn2nc(C)nc2C)cc1	2%	-1%	/	3%[46.1 µM]	/	-1%	14%	-24%[46.1 µM]
O=C(Nc1ccc(F)cc1)c1ccc(CSc2ccccc2)o1	-9%	-59%	-4%	?	-5.5%	-5%	6%	1%
CCOc1ccc(-n2nc(CO)c(C(=O)NCC(c3ccccc3)c3ccccc3)n2)cc1	/	/	5%	-5%[46.1 µM]	-1.1%	/	-27%	-1%[46.1 µM]
Cc1cccc(C)c1NC(=O)CSc1nc2c([nH]1)c(=O)n(C)c(=O)n2C	15%	2%	/	/	/	19%	-26%	?
Cc1ccc(-n2c(C)nn(CCOc3ccccc3)c2=O)cc1	12%	2%	/	-8%	/	1%	65%[activator]	-25%[46.1 µM]

Entries of single compounds from above. Values in the order: RE007 growth inh | SARS PLpro yeast | Cruzain noTriton | Lassa entry inh | Cruzain Triton | NS1 function inh | 2A StopGo | Marburg entry inh
O=C(Nc1ccc(F)cc1)c1ccc(CSc2ccccc2)o1 reads -9% | -59% | -4% | ? | -5.5% | -5% | 6% | 1%
N#Cc1ccc(COC(=O)Cn2nnc(-c3ccccc3)n2)cc1 reads -19% | 4% | -8% | -14% | -7.4% | -4% | 14% | 3%[46.1 µM]
COc1ccc(-c2noc(CN(C)S(=O)(=O)c3ccc(C)cc3)n2)cc1 reads -3% | -6% | -11% | ? | -3.6% | -19% | ? | ?
COc1ccc(Cl)cc1C(=O)n1nc(C)cc1C reads -10% | / | -3% | 7% | -3.8% | -4% | 0% | 1%
Cc1ccc(-n2c(C)nn(CCOc3ccccc3)c2=O)cc1 reads 12% | 2% | / | -8% | / | 1% | 65%[activator] | -25%[46.1 µM]

Next part.
SMILES	RE007 growth inh	SARS PLpro yeast	Cruzain noTriton	Lassa entry inh	Cruzain Triton	NS1 function inh	2A StopGo	Marburg entry inh
Cc1ccc(-c2nc(C)sc2CC(=O)OCC(=O)Nc2cccc([N+](=O)[O-])c2)cc1	-2%	14%	3%	13%	-10%	-8%	4%	?
Cc1onc(-c2ccccc2Cl)c1C(=O)N(C)CC(=O)Nc1ccc(F)c(F)c1F	12%	-1%	/	1%	/	/	-15%	-13%
COc1ccc(Cl)cc1NC(=O)CSc1ccc2nnc(CCNS(=O)(=O)c3ccccc3)n2n1	/	/	?	-10%[46.1 µM]	-2.0%	/	-18%	/
N#Cc1c(NC(=O)c2cc([N+](=O)[O-])ccc2N2CCOCC2)sc2c1CCCC2	-6%	14%	-26%	21%	-4.6%	7%	6%	4%
COc1ccc(OC)c(S(=O)(=O)N2CCC(C(=O)NC3CCCCCC3)CC2)c1	34%	2%	/	-2%	/	-9%	-5%	0%[46.1 µM]
Cn1c(-c2ccc(C=O)s2)nc2c3ccccc3c3ccccc3c21	-22%	2%	-15%	-10%	0.3%	-5%	-10%	1%
COC(=O)c1ccc(NC(=O)CN2CCC(NC(=O)c3ccco3)CC2)cc1	4%	3%	/	/	/	-4%	3%	/
CC(C)C(=O)NCCc1nc2ccccc2n1C	-9%	3%	-10%	11%	3.1%	3%	-9%	3%
CC(C)(C)c1cc2cccnc2n1Cc1cccc(F)c1	-6%	-5%	7%	?	-4.5%	5%	?	?
Cc1ccc(CSC2=NC(C)(C)Nc3ccccc32)c(C)c1	/	/	-1%	16%[46.1 µM]	-6.8%	/	-20%	/
Cc1ccc(S(=O)(=O)Nc2nc(C)c(C(=O)N/N=C/c3ccccc3)s2)cc1	20%	-1%	/	?	/	/	35%[activator]	-5%
Clc1ccc(N2CC2c2ccncc2)cc1 (stereo not given)	-13%	-1%	/	-20%[46.1 µM]	/	6%	6%	-21%[46.1 µM]
COc1cccc2cc(C(N)=O)/c(=N\NC(=O)c3ccccc3)oc12	9%	-1%	/	?	/	0%	-9%	3%
O=C(Nc1cccc2nsnc12)c1cc2c(cc1Cl)Sc1nccn1S2(=O)=O	-19%	/	/	8%	/	/	-6%	13%
O=C(Nc1nc2ccccc2n1CCN1CCOCC1)c1ccc(Cl)cc1	-11%	0%	/	?	/	2%	-6%	?
Cc1nc(-c2ccc(F)cc2)c(CC(=O)N(C)CC(=O)Nc2ccc(Br)cc2C)s1	-20%	-4%	/	9%	/	/	-20%	-21%[46.1 µM]
CCc1ccccc1NC(=O)c1sc(-n2nc(C)c(Cc3ccc4c(c3)OCO4)c2C)nc1C	/	/	-4%	2%[46.1 µM]	0.8%	/	-21%	7%[46.1 µM]
COc1ccc(C(CNC(=O)c2ccc(NS(=O)(=O)c3ccccc3)cc2)N2CCOCC2)cc1 (stereo not given)	-7%	0%	/	?	/	/	-9%	-10%
CCOC(=O)N1CCN(C(=O)CCS(=O)(=O)c2ccc3c(c2)CC(C)N3C(=O)CC)CC1 (stereo not given)	0%	1%	/	/	/	0%	-24%	/
CCOc1ccc(NC(=O)Cn2cc(C(=O)c3ccccc3)c(=O)c3cc4c(cc32)OCO4)cc1	/	/	-19%	0%[46.1 µM]	-3.3%	/	-6%	21%[46.1 µM]
CNS(=O)(=O)c1ccc(NC(=O)c2cncc(Br)c2)cc1	28%	0%	/	-1%	/	/	-6%	9%
CCc1noc(C)c1C(=O)Nc1nc(-c2cc(OC)ccc2OC)cs1	-2%	3%	/	?	/	/	-18%	?
C=CCNC(=O)CSc1nnc(-c2ccncc2)n1CCc1ccccc1	1%	3%	-4%	?	-0.8%	1%	16%	2%
CS(=O)(=O)N1CCC(C(=O)NCc2ccc(F)cc2)CC1	9%	1%	/	19%	/	/	-7%	-8%
O=C(CSc1n[nH]c(-c2ccncc2)n1)NCCc1ccccc1	-8%	-3%	-14%	1%	3.2%	?	-16%	?
O=c1c(-c2c(O)cc(O)c3c(=O)cc(-c4ccc(O)cc4)oc23)c(-c2ccc(O)cc2)oc2cc(O)cc(O)c12	14%	19%	/	/	/	-31%	-11%	/
C=CCNC(=O)c1ccccc1Cl	0%	2%	-2%	22%[14.3 µM]	5.6%	-2%	16%	15%
COc1ccccc1CN1CC(C(=O)NCc2nc3ccccc3n2C)CCC1=O (stereo not given)	-6%	4%	/	1%	/	-2%	-6%	-15%
C=CCn1c(O)c(C(C)=NC(C)c2ccccc2)c(=O)[nH]c1=O (stereo not given)	3%	-1%	/	/	/	-4%	-2%	/
CCNc1c(NCC)c(=O)c1=O	7%	0%	/	19%	/	6%	-17%	?
O=C(C1=C[C@H](C2CC2)C[C@H](OCCCCO)O1)N1CCN(Cc2ccccc2)CC1	2%	-1%	/	/	/	4%	17%	/
COc1cccc(OCCSc2nc(N)cc(N)n2)c1	-9%	/	-8%	?	3.8%	-105%	?	?
CCOc1ccc(OCC)c(NC(=O)c2cnn(-c3ccc(F)cc3)c2-n2cccc2)c1	/	/	?	3%[46.1 µM]	-6.7%	/	-18%	/
Cn1c(SCC(=O)Nc2nc(C(C)(C)C)cs2)nnc1C1CC1	-12%	1%	/	/	/	3%	?	/
Cc1nnc(Nc2ccccn2)c2ccccc12	-16%	-7%	-7%	4%	-5.6%	-42%	20%	13%
O=C(N/N=C\c1cccc(Br)c1)c1ccccc1-n1cccc1	-2%	-23%	0%	7%	-3.3%	2%	?	-29%[46.1 µM]
CCc1c(C)sc(NC(=S)N2CCN(CC)CC2)c1C(=O)OC	3%	0%	/	0%[46.1 µM]	/	-2%	-5%	-4%[46.1 µM]
O=C(Nc1nnc(SCc2ccccc2)s1)c1ccco1	-1%	-6%	-29%	9%	0.8%	-93%	36%[activator]	14%
O=C1CC23c4ccccc4N4C(=O)CC5OCC=C6CN1C2CC6C5C43 (stereo not given)	-24%	/	/	0%[46.1 µM]	/	/	-10%	?
